Cruzain inh Det: qHTS Assay for Promiscuous and Specific Inhibitors of Cruzain (with detergent). Cruzipain (Trypanosoma cruzi), P25779. Potency, µM, inactives show max response, negative = inhibition, actives largely listed as inhibitors. actives 0.43% (n = 200,000). purified cruzain, Z-FR-AMC fluorescence, 0.01% Triton;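 further: plate controls were neutral wells for no effect and buffer without enzyme for full effect; nearly all actives have a fitted effect of over 40% in size; top concentration of the series not given in the record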
Target sequence (P25779 123-467 limits assumed): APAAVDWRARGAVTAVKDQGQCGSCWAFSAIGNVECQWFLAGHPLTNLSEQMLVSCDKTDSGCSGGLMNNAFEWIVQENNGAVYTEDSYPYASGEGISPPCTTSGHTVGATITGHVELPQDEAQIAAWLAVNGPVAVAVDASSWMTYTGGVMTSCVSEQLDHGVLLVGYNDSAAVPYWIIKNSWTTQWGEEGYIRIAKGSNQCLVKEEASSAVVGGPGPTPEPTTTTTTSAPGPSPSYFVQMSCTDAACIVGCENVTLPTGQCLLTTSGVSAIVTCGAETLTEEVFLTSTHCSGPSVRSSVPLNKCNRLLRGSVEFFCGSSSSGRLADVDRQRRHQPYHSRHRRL
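15 min RT preincubation of 1.5 nM cruzain with compound, then 2 uM Z-FR-AMC added; kinetic AMC fluorescence, 60 s delta. Triton X-100 0.01%, pH 5.5.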
2A StopGo: High Throughput Screening for Foot and Mouth Disease Virus Antivirals; actives 1.2% (n = 410,000); human cells with a luciferase reporter of 2A StopGo recoding; control for the full effect not named in the record; AID 1159524, 2015; Potency, µM (highest dose often 57.9 µM), for the others: at the top dose signal change, negative = less light; active = well fitted falling curve with a large enough effect; inconclusive = small, poorly fitted or top-dose-only effect; inactive = no such curve, though single readings can be large or run the other way; tested in HEK293T cells; further: on the % scale 0 is the no-effect control and ±100 the full control effect; nearly all actives have a fitted effect of over 45% in size; luciferase light after 4 h
Lassa entry inh: qHTS for Inhibitors of binding or entry into cells for Lassa Virus | Lassa virus pseudotype entry inhibition, cell reporter; control for the full effect not named in the record | Potency, µM (highest dose often 37.9 µM), inactives show at the top dose activity change, negative = inhibition, usual class: inhibitors | actives 1.2% (n = 300,000); active means well fitted inhibition curve with a large enough effect; inconclusive means small, poorly fitted or top-dose-only effect, or effect the other way; inactive means flat fitted curve, though single readings scatter; tested in HEK293 cells; further: on the % scale 0 is the no-effect control and ±100 the full control effect; nearly all actives have a fitted effect of over 50% in size; luciferase read-out
NS1 function inh: qHTS Assay for Inhibitors of Influenza NS1 Protein Function; AID 2326, 2010; Potency, µM (doses to about 46.1 µM), for inactives: at the top dose activity, positive = more growth; S. cerevisiae slowed by influenza A NS1, growth recovery by OD600; actives 0.4% (n = 270,000); active means well fitted rising curve with a large enough effect; inconclusive means small, poorly fitted or top-dose-only effect; inactive means no such curve, though single readings can be large or run the other way; further: nearly all actives have a fitted effect of over 50% in size
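S. cerevisiae expressing influenza A NS1, grown in glucose, washed, then diluted 1:100 into pH 6.0 -URA galactose medium with 23 nl compound. Growth recovery read as OD600; NS1-free strain serves as control.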
Marburg entry inh: qHTS for inhibitors of binding or entry into cells for Marburg Virus | Marburg virus pseudotyped entry inhibition, cell reporter; control for the full effect not named in the record; about a third of the inactives were read at about 46 µM | Potency, µM (top dose mostly 37.8 µM), for inactives: at the top dose activity change, negative = inhibition, usual class: inhibitors | actives 1.8% (n = 300,000); active = well fitted inhibition curve with a large enough effect; inconclusive = small, poorly fitted or top-dose-only effect, or effect the other way; inactive = flat fitted curve, though single readings scatter; tested in HEK293 cells; about a fifth of its hits are not listed in these tables; further: on the % scale 0 is the no-effect control and ±100 the full control effect; luciferase read-out
Cruzain inh noDet: qHTS Assay for Promiscuous and Specific Inhibitors of Cruzain (without detergent); purified cruzain, Z-FR-AMC fluorescence, no detergent; Potency, µM, without a hit: max response, negative = inhibition, actives largely listed as inhibitors; actives 2.3% (n = 200,000); AID 1476, 2009;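 further: plate controls were enzyme without inhibitor for no effect and buffer without enzyme for full effect; nearly all actives have a fitted effect of over 40% in size; top concentration of the series not given in the record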
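Detergent-free condition (0.00005% Triton X-100) in acetate buffer pH 5.5 with DTT. 1.5 nM enzyme and compound were pre-mixed 15 min, then 2 uM Z-FR-AMC substrate added; reaction progress from fluorescence change between first and third reads (60 s).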
RE007 growth inh: qHTS Assay for Inhibitors of the HIV-1 protein Vpr; AID 651644, 2012; Potency, µM (titrated, usually from 92.2 µM), without a hit: top-dose activity change, negative = less growth; actives 0.21% (n = 360,000); S. pombe RE007 Vpr strain, BacTiter-Glo ATP luminescence, 24 h; control for the full effect not named in the record; active = well fitted falling curve with a large enough effect; inconclusive = small, poorly fitted or top-dose-only effect; inactive = no such curve, though single readings can be large or run the other way;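 further: on the % scale 0 is the no-effect control and ±100 the full control effect; nearly all actives have a fitted effect of over 50% in size; the assay follows cell death caused by Vpr and the record does not say whether a fall means rescue or toxicity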
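Fission yeast RE007 carrying one integrated HIV-1 vpr copy, seeded at OD 0.01 in PMG+AL medium with 23 nL pinned compound. Grown 24 h at 30 degrees; viability read by BacTiter-Glo luminescence after 5 min.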
SARS PLP yeast: qHTS of Yeast-based Assay for SARS-CoV PLP; actives 0.19% (n = 330,000); Potency, µM (highest dose often 32.9 µM), for the others: at the top dose activity, positive = growth rescue; S. cerevisiae expressing SARS-CoV PLpro, growth rescue; control for the full effect not named in the record; active means well fitted rising curve with a large enough effect; inconclusive means small, poorly fitted or top-dose-only effect; inactive means no such curve, though single readings can be large or run the other way; further: 0% is about no effect; nearly all actives have a fitted effect of over 55% in size; growth read by luminescence after 48 h
The depositor's hits bear a star; [ ] = remark or other dose. Unless noted, the call rests on the fitted dose curve; in most records, active means well fitted curve in the direction sought with a large enough effect; inconclusive means small, poorly fitted or top-dose-only effect, or another doubt; inactive means no such curve, though single readings can be large; an effect the other way counts as inactive or inconclusive. Potency means the concentration at half of the fitted maximal effect.

O=C(Nc1ccccc1Cl)c1ccc(COc2ccc3c(c2)CCC3)cc1 was read as Cruzain inh Det -1.8%, 2A StopGo 1%, Lassa entry inh 18%, NS1 function inh 16%, Marburg entry inh -12%, Cruzain inh noDet -12%, RE007 growth inh 2% and SARS PLP yeast 12%.
For Cc1nn(CC(=O)N2CCCCC2)c(=O)c2nn(-c3ccccc3)c(C)c12 the results were 2A StopGo -3%, NS1 function inh -8%, RE007 growth inh -11% and SARS PLP yeast 0%.
`O=Cc1s/c(=N\S(=O)(=O)c2ccccc2)n(CCCCl)c1Cl` gave 2A StopGo 7.9µM*, Lassa entry inh inconclusive, NS1 function inh 4%, Marburg entry inh inconclusive, RE007 growth inh 4% and SARS PLP yeast -8%.
O=C(CSc1nnc2scc(-c3ccc(Cl)cc3)n12)Nc1ccc(F)cc1 was read as Cruzain inh Det -3.1%, 2A StopGo -19%, Lassa entry inh 20%[46.1 µM], Marburg entry inh 4%[46.1 µM] and Cruzain inh noDet -5%.
`COCCNCc1cc(C)n(-c2cc(S(=O)(=O)N3CCOCC3)ccc2N2CCCC2)c1C` gave 2A StopGo -6%, Lassa entry inh 6%, Marburg entry inh 0% and RE007 growth inh 1%.
Screening O=C(CN1CCN(C/C=C/c2ccccc2)CC1)Nc1ccccc1C(=O)NC1CC1 returned 2A StopGo -29%, NS1 function inh -1%, RE007 growth inh -1% and SARS PLP yeast -1%.
`CC(C)C(=O)Nc1nc2cc3c(cc2s1)OCCO3` gave 2A StopGo -34%, Lassa entry inh 4.5µM*, NS1 function inh 0%, Marburg entry inh inconclusive, RE007 growth inh 3% and SARS PLP yeast -1%.
For Cc1c(C(=O)NCCN(C)C)oc2c1-c1nn(Cc3ccccc3Cl)cc1CC2 the results were Cruzain inh Det 1.4%, 2A StopGo -7%, Lassa entry inh inconclusive and Cruzain inh noDet 29%.
COc1cccc(CNC(=O)N[C@@H](CC(C)C)C(=O)O)c1 was read as Cruzain inh Det 4.0%, 2A StopGo -6%, Lassa entry inh 8%, NS1 function inh 8%, Marburg entry inh -3%, Cruzain inh noDet 10%, RE007 growth inh -14% and SARS PLP yeast -3%.
For Cc1ccc(CNC(=O)CC2(CC3=NS(=O)(=O)c4ccccc4N3)CCCC2)cc1 the results were 2A StopGo 2%, NS1 function inh -21%, RE007 growth inh -2% and SARS PLP yeast 15%.
For CCOC(=O)Cn1nc(NC(=O)COc2ccc(F)cc2)cc1C the results were 2A StopGo 4%, Lassa entry inh 15%, NS1 function inh -4%, Marburg entry inh -6%, RE007 growth inh 7% and SARS PLP yeast 12%.
For COc1ccc(CCC(C)NCc2cccc(Br)c2)cc1 (stereo not drawn) the results were 2A StopGo 17%, NS1 function inh 0%, RE007 growth inh -4% and SARS PLP yeast 2%.
Cc1cc(C)n2nc(C(=O)OCC(=O)N(C)CC(=O)Nc3ccccc3Cl)nc2n1 was read as 2A StopGo -4%, Lassa entry inh 3%, Marburg entry inh 2%, RE007 growth inh 2% and SARS PLP yeast 4%.
For O=C(O)C(Cc1cnc[nH]1)NS(=O)(=O)c1ccc(Br)cc1 (stereo not drawn) the results were 2A StopGo 1%, Lassa entry inh 6%, NS1 function inh 10%, Marburg entry inh -16%[46.1 µM], RE007 growth inh 4% and SARS PLP yeast -2%.
`CCn1nc(C)cc1C(=O)OCC(=O)c1ccc(Cl)cc1` gave 2A StopGo -1%, Lassa entry inh -8%[46.1 µM], NS1 function inh -6%, Marburg entry inh 13%[46.1 µM], RE007 growth inh -5% and SARS PLP yeast -2%.
CCc1ccc(N2C(=O)C3CCCN3C2=S)cc1 (stereo not drawn) was read as 2A StopGo 3%, Lassa entry inh -13%[46.1 µM], NS1 function inh -3%, Marburg entry inh -9%[46.1 µM], RE007 growth inh -14% and SARS PLP yeast -2%.
For COc1ccc(C2CC(c3cccs3)=NN2C(=O)COC(=O)C2CCCCC2)cc1OC (stereo not drawn) the results were 2A StopGo -13%, Lassa entry inh inconclusive, NS1 function inh 15%, Marburg entry inh inconclusive, RE007 growth inh 4% and SARS PLP yeast -3%.
Screening COCC(=O)N1CCC(n2nnc3cc(F)ccc32)CC1 returned Cruzain inh Det 3.0%, 2A StopGo 5%, Lassa entry inh 2%, NS1 function inh 3%, Marburg entry inh inconclusive, Cruzain inh noDet 3%, RE007 growth inh -13% and SARS PLP yeast -2%.
Screening CS(=O)(=O)NCc1ccc(C(=O)NC2CCCCC2)cc1 returned Cruzain inh Det 3.7%, Lassa entry inh 16%, NS1 function inh 2%, Marburg entry inh 10%, Cruzain inh noDet 0%, RE007 growth inh 2% and SARS PLP yeast -1%.
Cc1cccc(OCc2nnc(SCC(=O)NC3CCCC3)n2C)c1 was read as 2A StopGo 2%, Lassa entry inh 0%, NS1 function inh 10%, Marburg entry inh 6%[46.1 µM], RE007 growth inh -1% and SARS PLP yeast -2%.
For COC(=O)c1cc(NS(=O)(=O)c2ccc(N3CCC(C)CC3)c([N+](=O)[O-])c2)cc(C(=O)OC)c1 the results were Cruzain inh Det -6.8%, 2A StopGo 6%, Lassa entry inh -1%, NS1 function inh 20%, Marburg entry inh inconclusive, Cruzain inh noDet -22%, RE007 growth inh 17% and SARS PLP yeast 4%.
For C=CCSc1nnc(CNS(=O)(=O)c2ccc(C)cc2)n1C the results were 2A StopGo 8%, Lassa entry inh 7%[46.1 µM], NS1 function inh -14%, Marburg entry inh -12%[46.1 µM], RE007 growth inh -7% and SARS PLP yeast inconclusive.
For CN(C)c1cccc(C(=O)N2CCCC(CCC(=O)NCc3ccccc3F)C2)c1 (stereo not drawn) the results were 2A StopGo 5%, Lassa entry inh -21%[46.1 µM], NS1 function inh -5%, Marburg entry inh -25%[46.1 µM], RE007 growth inh 6% and SARS PLP yeast -5%.
For O=[N+]([O-])c1ccc(O)c(C=Nc2ccc3nc(-c4ccccc4)[nH]c3c2)c1 the results were Cruzain inh Det -9.1%, 2A StopGo 5%, Lassa entry inh 16%, NS1 function inh -28%, Marburg entry inh inconclusive, Cruzain inh noDet -26%, RE007 growth inh inconclusive and SARS PLP yeast -41%.
COCCn1c(=O)[nH]c(=O)c2cc(C(=O)c3cc(OC)ccc3O)cnc21 was read as Cruzain inh Det -4.1%, 2A StopGo -15%, Lassa entry inh -13%, NS1 function inh 1%, Marburg entry inh -16%, Cruzain inh noDet 9%, RE007 growth inh -12% and SARS PLP yeast -6%.
For O=C(COC(=O)c1cccc(S(=O)(=O)N2CCCCC2)c1)NCc1ccccc1 the results were 2A StopGo 10%, Lassa entry inh 3%[46.1 µM], Marburg entry inh -3%, RE007 growth inh -16% and SARS PLP yeast 2%.
Screening COc1cccc(NC(=O)CN(C)C(=O)/C=C/c2ccc3ccccc3n2)c1 returned 2A StopGo -17%, Lassa entry inh -28%, Marburg entry inh inconclusive and RE007 growth inh 3%.
Screening C/C(=N\NC(=O)c1cccc(C)c1O)c1ccc(NC(=O)Cc2ccccc2)cc1 returned 2A StopGo 11%, Lassa entry inh -1%, NS1 function inh -9%, Marburg entry inh inconclusive, RE007 growth inh -22% and SARS PLP yeast 2%.
`CCOC(=O)C1CCN(C(=O)Cn2nc(C)n3c(cc4sccc43)c2=O)CC1` gave Cruzain inh Det -3.7%, 2A StopGo 0%, Marburg entry inh -4%[46.1 µM] and Cruzain inh noDet -10%.
For COc1cccc(OCC(=O)NN=C2c3ccccc3-c3ccccc32)c1 the results were Cruzain inh Det -4.0%, 2A StopGo 23%, Lassa entry inh -7%, NS1 function inh -1%, Marburg entry inh 9%, Cruzain inh noDet 2%, RE007 growth inh 2% and SARS PLP yeast 6%.
`CCC(C(=O)O)n1nnc(-c2ccc(-c3ccc(OC)cc3)cc2)n1` (stereo not drawn) gave Cruzain inh Det -7.2%, Lassa entry inh 2%, NS1 function inh 4%, Marburg entry inh 0%, Cruzain inh noDet inconclusive, RE007 growth inh -2% and SARS PLP yeast 1%.
Screening Cc1cc(N=Cc2c(O)ccc3cc(Br)ccc23)no1 returned Cruzain inh Det -5.0%, 2A StopGo -17%, Lassa entry inh 3%, NS1 function inh -57%, Marburg entry inh -12%, Cruzain inh noDet -16%, RE007 growth inh inconclusive and SARS PLP yeast -76%.
For Cc1cc(C)cc(NC(=O)c2cnc3sc(N4CCCC4)nn3c2=O)c1 the results were Cruzain inh Det -2.1%, 2A StopGo inconclusive, Lassa entry inh -1%[46.1 µM] and Cruzain inh noDet -5%.
`COc1ccc(CCNC(=O)c2cc3c(s2)-c2ccccc2OC3)cc1OC` gave Cruzain inh Det -25%, 2A StopGo inconclusive, Marburg entry inh -23%[46.1 µM] and Cruzain inh noDet inconclusive.
COCCCNC(=O)[C@H](CSCc1ccccc1)N1Cc2ccccc2C1=O was read as 2A StopGo -13%, Lassa entry inh -16%, NS1 function inh -3%, Marburg entry inh -3%[46.1 µM], RE007 growth inh -8% and SARS PLP yeast 0%.
COC(=O)c1cc(OC)c(OC)cc1N=CC1=C(O)CC(C)(C)CC1=O was read as Cruzain inh Det -0.9%, 2A StopGo -21%, Lassa entry inh -5%, NS1 function inh -10%, Marburg entry inh inconclusive, Cruzain inh noDet inconclusive, RE007 growth inh -6% and SARS PLP yeast -1%.
For COc1cc([N+](=O)[O-])ccc1NC(=O)COC(=O)c1n[nH]c2ccccc12 the results were Cruzain inh Det -8.8%, 2A StopGo inconclusive, Lassa entry inh 3%, NS1 function inh 19%, Marburg entry inh -16%, Cruzain inh noDet inconclusive, RE007 growth inh -8% and SARS PLP yeast 5%.
`NCCCC[C@@H]1NC(=O)c2cc([N+](=O)[O-])cc(F)c2NCCCC[C@@H](C(N)=O)NC(=O)[C@H](CCC(N)=O)NC1=O` gave Cruzain inh Det -6.5%, 2A StopGo 6%, Lassa entry inh -5%, NS1 function inh -26%, Marburg entry inh 20%, Cruzain inh noDet 0%, RE007 growth inh 7% and SARS PLP yeast 0%.
`CCC(C)[C@H](NC(=O)NCc1ccccn1)C(=O)OC` (stereo partly drawn) gave Cruzain inh Det 6.0%, 2A StopGo 31%, Lassa entry inh -12%, NS1 function inh -2%, Marburg entry inh 12%, Cruzain inh noDet -7%, RE007 growth inh 5% and SARS PLP yeast -6%.

Source: PubChem (National Center for Advancing Translational Sciences (NCATS))
